# Assay outcomes from PubChem BioAssay.
# RGS16-Gao HTS – RGS16-Galphao interaction regulator (human) | hit rate 0.38% among 220,000 | AID 1441 | O15492+P09471 | bead-based flow cytometry RGS16-Galphao binding, fluorescence; actives lie on both sides | binding response (% of control), % at 10 µM;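 active means below 25% or above 175%, edge rows of some plates excepted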;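 further: Galphao activated by GDP with aluminum fluoride before binding; 100% = wells without compound and 0% = beads without RGS; some results beyond the cut were filed as inactive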
# INS promoter inh – TRM-6 insulin promoter activity inhibition; inhibition, % at 2 µM; TRM-6 cells (human fetal islet line), insulin promoter-eGFP reporter, imaging; reporter expression induced with tamoxifen; AID 1273; hit rate 0.9% among 130,000;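 active means inhibition above the mean plus 3 SD, with well images judged a real hit on visual review, cut at about 60% in these data, passing the limit was not always enough; inconclusive means inhibition over the cutoff but images rejected on review; inactive means inhibition not above the cutoff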
# GALR2 agonist – activates the human galanin receptor 2 | O43603 | GALR2-expressing cells, agonist activation read-out | activation, %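 (tested at 5 µM)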 | hit rate 0.48% among 140,000 | AID 803;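 active means above mean plus 3 SD of all compounds, about 5% in these data, not always enough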;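 further: 0% = vehicle buffer wells and 100% = reference agonist at full effect; tested in CHO reporter cells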
# HSV replic up – HSV replication enhancement; HSV replication augmentation in cells, fold increase; maximum fold increase; hit rate 0.005% among 220,000;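 active means peak rise of 1.5-fold or more in the series; inconclusive means self-fluorescent or not available for retest; tested in PC3 cells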;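 further: first round at 10 µM; read as green reporter fluorescence; hits show the peak of a series up to 25 µM; 1 = signal of infected wells without compound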
# PKD1 inh – blocks activity of human protein kinase D1; Q15139; PKD1 kinase fluorescence polarization assay; inhibition, %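 (about 10 µM by stock and volumes)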; hit rate 0.056% among 200,000;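 active means inhibition of 50% or more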;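 further: controls were vehicle for no effect and a reference inhibitor for full effect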
# Target sequence (Q15139 whole entry, looked up): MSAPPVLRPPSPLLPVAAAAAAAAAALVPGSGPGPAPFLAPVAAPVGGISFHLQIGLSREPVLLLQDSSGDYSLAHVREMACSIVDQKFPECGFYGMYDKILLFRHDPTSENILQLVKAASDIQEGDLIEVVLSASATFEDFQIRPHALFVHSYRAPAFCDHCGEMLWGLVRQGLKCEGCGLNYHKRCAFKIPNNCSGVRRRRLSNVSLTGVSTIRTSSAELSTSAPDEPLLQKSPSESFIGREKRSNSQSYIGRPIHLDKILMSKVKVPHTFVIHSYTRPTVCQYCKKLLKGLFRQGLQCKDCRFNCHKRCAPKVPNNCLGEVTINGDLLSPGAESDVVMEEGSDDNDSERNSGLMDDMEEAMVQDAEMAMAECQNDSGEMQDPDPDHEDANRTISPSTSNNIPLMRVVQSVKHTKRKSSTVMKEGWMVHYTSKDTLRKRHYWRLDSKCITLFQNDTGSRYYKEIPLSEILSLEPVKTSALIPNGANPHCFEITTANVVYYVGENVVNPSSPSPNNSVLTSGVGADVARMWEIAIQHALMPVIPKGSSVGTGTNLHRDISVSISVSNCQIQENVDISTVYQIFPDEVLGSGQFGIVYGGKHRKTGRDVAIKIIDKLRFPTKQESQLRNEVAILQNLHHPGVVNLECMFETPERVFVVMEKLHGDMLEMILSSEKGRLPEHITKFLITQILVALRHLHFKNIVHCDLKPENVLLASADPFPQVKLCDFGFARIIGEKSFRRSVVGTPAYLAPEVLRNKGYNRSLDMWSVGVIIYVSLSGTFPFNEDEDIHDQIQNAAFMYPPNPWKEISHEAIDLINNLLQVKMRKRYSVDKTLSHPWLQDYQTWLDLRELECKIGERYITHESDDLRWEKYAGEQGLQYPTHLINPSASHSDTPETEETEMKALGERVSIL
# INS promoter inh cell count – second read-out of INS promoter inh, no call of its own (marks repeat the call); normalized cell count, %; measured here: cell count, toxicity; reference of the scale not given here;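 cells exposed to compound for 48 h; stained nuclei by imaging scaled within each plate; lower means fewer cells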
# HSV replic up primary fold – also measured in HSV replic up; calls as there; fold increase; compound at 10 µM; measured here: primary screen fold increase 10 uM; tested in PC3 cells;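 GFP signal in the first replicate; 1 = infected wells without compound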
# An asterisk follows results filed as active; i = inactive; ? = inconclusive; nt = no result given.
SMILES,RGS16-Gao HTS,INS promoter inh,INS promoter inh cell count,GALR2 agonist,HSV replic up,HSV replic up primary fold,PKD1 inh
CCOC(=O)c1[nH]c2ccc(OCC)cc2c1CCCN1C(=O)c2ccccc2C1=O,108.5,-5.6,117.7,-0.2,i,0.85,3.6
CC(=O)c1ccc(OCCCC(=O)n2nnc3ccccc32)cc1,99.4,nt,nt,-3.2,i,0.93,-7.0
COc1cc(-c2nnc(-c3cc(OC)c(OC)c(OC)c3)o2)cc(OC)c1OC,100.8,14.3,150.3,-1.1,i,0.79,-0.4
CC1Cc2ccccc2N1S(=O)(=O)c1cccc2nsnc12 (stereo not drawn),92.5,-34.9,116.8,0.5,i,1.05,-3.9
COc1ccc(OC)c(-c2cn(S(=O)(=O)c3ccccc3)nc2N)c1,105.0,nt,nt,-3.0,i,0.93,6.0
NC(=O)C1(N2CCCCC2)CCN(Cc2nc3ccccc3c(=O)[nH]2)CC1,102.6,-18.4,147.7,0.1,i,0.95,3.0
Cc1nnc(C)n1/N=C/c1cc(Br)cc(Br)c1O,101.2,nt,nt,-1.3,i,0.897,7.5
Cn1ccsc1=NC(=O)c1ccc(Cl)cc1,102.2,nt,nt,nt,i,0.94,-7.0
O=S(=O)(c1ccc(Br)s1)N1CCN(Cc2ccc3c(c2)OCO3)CC1,100.8,-25.0,160.0,-3.0,i,0.98,-8.8
COC(=O)CCCCCCCCC(O)CN1CCCCC1 (stereo not drawn),93.0,12.0,142.9,-2.6,i,0.96,0.4
O=C(COc1ccc(Br)cc1Br)NC1CCCC1,105.0,nt,nt,nt,i,0.92,-0.1
O=C(CC12CC3CC(CC(Br)(C3)C1)C2)Nc1cccc(S(=O)(=O)NC2=NCCC2)c1,103.7,8.6,116.3,nt,i,0.95,-3.9
NNC(=O)c1ccc(Cn2cc(Br)c(N)n2)cc1,98.3,nt,nt,nt,i,1.09,nt
O=C(Nc1cccc(S(=O)(=O)C(F)F)c1)c1ccc(S(=O)(=O)N2CCCC2)cc1,96.9,-55.6,117.2,nt,i,0.92,0.4
COc1ccc(OC)c2sc(NC(=O)C(C)C)nc12,104.3,nt,nt,0.7,i,0.92,-4.8
COC(=O)c1oc2ccc(OC)cc2c1N,99.2,18.8,104.9,-0.9,i,0.89,-8.9
CCOC(=O)C1C(=O)C=C(C)C(C(=O)OCC)C1c1ccc(OC)cc1 (stereo not drawn),96.6,nt,nt,-2.0,i,1.09,-0.8
Cc1ccc(C2=NOC(=O)/C2=C\c2ccc(C)o2)cc1,85.6,nt,nt,nt,i,1.19,nt
Cc1nc(NC(=O)CSc2cc(C)c3ccccc3n2)c(Cl)cc1Cl,107.9,nt,nt,-1.7,i,0.88,3.0
COC(=O)CCNc1ccc2c(c1)OCCO2,59.5,nt,nt,-1.1,i,0.92,17.0
CC(C)N(CC#CCC(O)(c1ccccc1)C1CCCC1)CCO (stereo not drawn),105.7,nt,nt,nt,i,0.95,-6.5
CNC(=O)NC(=O)C(C)OC(=O)c1cc2c(s1)CCCCC2 (stereo not drawn),99.9,nt,nt,1.1,nt,nt,5.3
CC(C)(C)C(=O)/C=c1\s/c(=C\c2ccc(-c3ccc([N+](=O)[O-])cc3)o2)c(=O)n1CC(=O)NC(N)=O,100.4,nt,nt,nt,?,nt,20.7
COc1ccc(C(=O)c2ccc(N3CCOCC3)cc2)c(OC)c1,97.2,nt,nt,-2.6,i,0.88,-8.4
CN(C#N)c1nccc(-c2cccs2)n1,105.7,-7.1,107.8,nt,i,0.92,-0.2
# More structures follow:
SMILES,RGS16-Gao HTS,INS promoter inh,INS promoter inh cell count,GALR2 agonist,HSV replic up,HSV replic up primary fold,PKD1 inh
Cc1ccc(C2=NN(C(=O)CSc3nc(N)cc(N)n3)C(c3ccco3)C2)cc1 (stereo not drawn),100.9,55.6,55.6,-1.2,i,0.88,-5.3
CSc1nnc(-c2cc(-c3ccc(C)cc3)nc3ccccc23)o1,104.6,-28.6,138.9,1.3,i,0.66,2.4
CCCCSc1nc(C)cc(SCC(=O)N/N=C/c2ccccc2)n1,115.3,-50.0,87.0,nt,i,0.98,-2.1
CC(CNCc1ccc2c(c1)OCO2)NCc1ccc2c(c1)OCO2 (stereo not drawn),102.2,nt,nt,-1.9,i,0.83,-8.7
COc1cc(C(=S)N2CCC(C)CC2)ccc1O,99.1,-9.9,123.5,-4.2,i,0.88,-3.8
S=C(NCc1ccco1)N1CCN(c2nc(-c3ccccc3)cs2)CC1,110.8,nt,nt,nt,i,0.86,2.8
O=C(Cn1cnc2cc([N+](=O)[O-])ccc2c1=O)NC(=O)NCc1ccccc1,111.6,nt,nt,nt,i,0.8,nt
ClC(/C=N/n1cnnc1)=C/c1ccccc1,91.4,nt,nt,nt,i,0.72,nt
COc1ccc(OCC(O)Cn2cnc(-c3ccc(Br)cc3)c2)cc1 (stereo not drawn),nt,12.5,113.6,-1.2,i,0.95,3.2
COc1ccc(-c2nnc(SCC(=O)NCc3ccco3)n2C)cc1,98.2,nt,nt,-2.2,i,1.09,-2.9
NC(=O)CSCc1nc2ccccc2s1,94.6,-8.6,95.1,-2.8,i,1.07,-6.5
N#Cc1c(NC(=O)CSc2nc(-c3ccco3)cc(C(F)(F)F)n2)sc2c1CCCC2,98.6,-86.7,92.3,-1.0,i,0.91,-9.9
COc1ccc(Cn2c(SCc3ccc(C)cc3)nc3cc(OC)c(OC)cc3c2=N)cc1Cl,147.4,50.0,130.0,3.1,i,0.44,14.1
COc1ccc(C(=O)CSc2nnc(CNc3ccc(C)cc3C)o2)cc1,102.0,21.1,163.5,-1.6,i,0.86,-13.9
Clc1ccccc1CSc1ncn(-c2ccccc2)n1,101.4,22.6,188.8,-1.4,i,0.79,-0.6
CCOC(=O)c1ccc(CN(Cc2ccccc2)S(=O)(=O)c2cccc([N+](=O)[O-])c2)cc1,103.9,nt,nt,-0.7,i,1.1,7.6
c1ccc2c(c1)nc(NCC1CCCO1)c1nnnn12 (stereo not drawn),101.5,nt,nt,-0.2,i,0.88,-14.2
COC/C=C/C1=CC2=CC(=O)C(C)(OC(=O)c3cnc4ccccc4n3)C(=O)C2=CN1Cc1ccc(OC)cc1 (stereo not drawn),93.5,nt,nt,nt,i,1.02,nt
COc1ccc(OC)c(/C=N/NC(=O)Cc2nc3ccccc3[nH]2)c1,47.6,56.0,61.5,-2.3,i,1.02,-8.3
O=C(CN1C(=O)NC2(CCCCCC2)C1=O)N1CCN(S(=O)(=O)c2ccc(Cl)cc2)CC1,91.0,-4.7,139.2,-2.2,i,0.86,-4.0
Cc1ccc(-n2nc(CN3CCOCC3)c(-c3ccccc3)c2N)c(C)c1,94.3,nt,nt,-0.2,i,1.05,-6.5
Nn1c(SCC(=O)NC2CCCCC2)nnc1C1CC1,103.2,31.4,121.4,-0.5,i,0.95,-10.1
COc1ccc2c(c1)CCCN2C(N)=Nc1ccc(Cl)cc1,101.3,nt,nt,nt,i,0.8,nt
O=C1SC(c2ccccc2)=C/C1=C\N1CCCCC1,100.1,nt,nt,-2.3,i,1.09,-4.5
COc1ccc(NC(=O)Nc2cc(NC(=O)Nc3ccc(OC)cc3)c(C)nc2C)cc1,90.8,14.3,140.1,-0.9,i,0.76,-8.3

# 3 successive records out of the list so far:
SMILES,RGS16-Gao HTS,INS promoter inh,INS promoter inh cell count,GALR2 agonist,HSV replic up,HSV replic up primary fold,PKD1 inh
Cc1ccc(C2=NN(C(=O)CSc3nc(N)cc(N)n3)C(c3ccco3)C2)cc1 (stereo not drawn),100.9,55.6,55.6,-1.2,i,0.88,-5.3
CSc1nnc(-c2cc(-c3ccc(C)cc3)nc3ccccc23)o1,104.6,-28.6,138.9,1.3,i,0.66,2.4
CCCCSc1nc(C)cc(SCC(=O)N/N=C/c2ccccc2)n1,115.3,-50.0,87.0,nt,i,0.98,-2.1

# More records
SMILES,RGS16-Gao HTS,INS promoter inh,INS promoter inh cell count,GALR2 agonist,HSV replic up,HSV replic up primary fold,PKD1 inh
COc1ccccc1C(O)P(=O)(OC(C)C)c1ccc(N(C)C)cc1 (stereo not drawn),97.3,41.7,89.4,-2.0,i,0.85,-2.9
COc1ccc(OC)c(NC(=O)Cn2cnc3c(cnn3-c3ccccc3)c2=O)c1,104.6,-42.9,136.1,0.1,i,0.96,2.2
COc1ccc(CNC(=S)N2CCN(Cc3ccccc3)CC2)cc1,98.3,nt,nt,nt,i,0.98,nt
Cc1cc(Br)ccc1SCC(=O)OCC(=O)NC1CC1,103.0,9.1,122.3,nt,i,1.03,-0.3
CCOC(=O)C(CCC(=O)O)(CCC(C)C)c1csc(N)n1 (stereo not drawn),-415.7,4.2,77.7,-1.5,i,0.99,-1.4
S=C(Nc1ccc(Cl)cc1)NN1CCOCC1,100.7,nt,nt,-2.2,i,0.99,0.7
CCOC(=O)c1cc(NC(=O)CC(C)(C)CC(=O)O)ccc1N1CCCCC1,112.0,nt,nt,nt,i,0.98,nt
N=P(N1CCOCC1)(N1CCOCC1)C12CC3CC(CC(C3)C1)C2,108.5,nt,nt,-3.0,i,0.95,0.2
Cc1ccc(S(=O)(=O)N2CC(O)CC2C(=O)Nc2ccc3c(c2)CCC3)cc1 (stereo not drawn),104.4,-92.9,74.2,-2.3,i,1,-14.9
O=C(NCc1ccco1)C(=O)NCC1OCCN1C(=O)c1ccc(Cl)cc1 (stereo not drawn),102.7,nt,nt,nt,i,0.59,nt
O=C(O)c1nn(-c2ccccc2)c(-c2ccccc2)c1C(=O)c1ccccc1,105.5,15.4,123.1,-1.7,i,1.1,-4.8
C=CCOC(=O)CCCC(=O)NC1CCCCC1,90.0,37.9,112.0,-2.7,i,0.86,8.9
Cc1cc(C)cc(N(CCC(=O)O)S(=O)(=O)c2ccc3ccccc3c2)c1,97.4,-40.0,97.4,-0.6,i,0.86,-3.5
COC(=O)/C(=C/c1c[nH]c2ccccc12)NC(C)=O,95.9,40.0,121.7,-0.8,i,1,3.3
COc1ccc(NS(=O)(=O)c2ccc(NC(=O)C3CCCO3)cc2)cc1 (stereo not drawn),91.9,3.0,99.3,-2.0,i,0.95,-6.5
Cc1ccc(O)c(NC(=S)NC(=O)C(C)C)c1,103.6,nt,nt,nt,i,1.04,nt
Cc1ccc(S(=O)(=O)N2CCCC2C(=O)OCc2ccccc2)cc1 (stereo not drawn),105.8,10.8,68.6,-2.8,i,0.95,-7.0
O=C(O)c1cncc(Br)c1,99.2,nt,nt,nt,i,0.97,nt
C=CCN1C(=O)CSC1=Nc1cccc(O)c1,102.2,40.5,105.0,-2.5,i,1.05,5.4
CCCC1NC(=S)N(C2CCCCC2)C1=O (stereo not drawn),116.8,-22.1,131.4,-0.6,i,0.91,-4.2
CCCNC(=O)c1nnsc1S(=O)c1ccc(Cl)cc1 (stereo not drawn),123.3,i,15.7,nt,i,0.83,0.5
COc1ccccc1Oc1ccc(S(=O)(=O)N2CCOCC2)cc1S(=O)(=O)N1CCOCC1,101.0,-183.3,82.4,0.1,i,0.96,-2.4
Cc1ccccc1C(=O)Nc1ccc(-c2nc3ccc(C(=O)c4ccccc4)cc3[nH]2)cc1,100.3,-62.1,126.2,-1.3,i,0.72,-3.4
S=c1[nH]nc(-c2ccccn2)n1/N=C/c1ccc(Br)s1,103.4,nt,nt,2.6,i,0.95,-1.8
O=C(O)c1ccccc1N(Cc1ccccc1)C(=O)COc1ccccc1,98.9,nt,nt,nt,i,1.2,nt
# More records follow:
SMILES,RGS16-Gao HTS,INS promoter inh,INS promoter inh cell count,GALR2 agonist,HSV replic up,HSV replic up primary fold,PKD1 inh
CN(C(=O)c1ccc2c(c1)CCN2S(C)(=O)=O)c1ccccc1,99.9,nt,nt,nt,i,1,4.1
CC(=O)Nc1ccc(S(=O)(=O)c2ccc(C)cc2)cc1,99.1,nt,nt,nt,i,1.02,0.6
O=C(NCc1cccnc1)/C(=C/c1ccco1)NC(=O)c1ccccc1,95.0,-30.0,119.4,-1.0,i,0.9,9.1
Cc1nc2sc(C(c3ccc(C(C)C)cc3)N3CCN(CCO)CC3)c(O)n2n1 (stereo not drawn),101.2,-20.0,51.5,-2.1,i,0.87,0.1
C=CCc1ccc(OCCCCN2CCC(C)CC2)c(OC)c1,97.3,nt,nt,0.0,i,0.96,4.1
C=C1CCN([C@H](C(=O)NCc2cc(OC)c(OC)c(OC)c2)C(C)C)S(=O)(=O)c2ccccc21,97.5,nt,nt,nt,i,0.99,nt

# Reprinted at random: 2 entries already listed, in no set order.
SMILES,RGS16-Gao HTS,INS promoter inh,INS promoter inh cell count,GALR2 agonist,HSV replic up,HSV replic up primary fold,PKD1 inh
C=CCc1ccc(OCCCCN2CCC(C)CC2)c(OC)c1,97.3,nt,nt,0.0,i,0.96,4.1
C=C1CCN([C@H](C(=O)NCc2cc(OC)c(OC)c(OC)c2)C(C)C)S(=O)(=O)c2ccccc21,97.5,nt,nt,nt,i,0.99,nt
